ClpP mod: qHTS Assay for Activators of ClpP; ATP-dependent Clp protease proteolytic subunit (Bacillus subtilis (strain 168)), P80244; AID 651965, 2013; purified B. subtilis ClpP, FRET peptide cleavage, 20 min; Potency, µM (top dose mostly 57.5 µM), without a hit: at the highest dose activity change, negative = active; actives 1.9% (n = 340,000); active = well fitted falling curve with a large enough effect; inconclusive = small, poorly fitted or top-dose-only effect; inactive = no such curve, though single readings can be large or run the other way; further: potency means the concentration at half of the fitted maximal effect; the source files actives as falling curves though it sought activators and does not explain the sign; nearly all actives have a fitted effect of over 65% in size; many hits overshoot -100%
Target sequence (P80244 whole entry, looked up): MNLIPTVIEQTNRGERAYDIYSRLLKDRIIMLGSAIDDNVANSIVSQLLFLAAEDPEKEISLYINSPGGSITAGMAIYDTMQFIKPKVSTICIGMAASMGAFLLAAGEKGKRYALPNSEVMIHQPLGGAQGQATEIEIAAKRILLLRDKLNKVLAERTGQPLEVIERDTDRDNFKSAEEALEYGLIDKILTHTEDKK
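ClpP 10 microg/mL final, pH 8 Tris/KCl buffer with BSA, glycerol, Tween-20; compound pinned in; FRET-FV substrate; RT 20 min; Ex320/Em430; ΔFRET vs ADEP 5.8 microM, DMSO, no enzyme.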
Sfp PPTase inh: blocks B. subtilis Sfp PPTase activity; Q9F4F7; Biochemical Sfp PPTase activity, qHTS; Potency, µM, for inactives: max response, negative = inhibition, most hits filed as inhibitors; actives 3.5% (n = 310,000); active means well fitted inhibition curve with a large enough effect; inconclusive means small, poorly fitted or top-dose-only effect, or another doubt; inactive means no such curve, though single readings can be large or run the other way;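 further: the enzyme is Sfp with the accession as filed and its product quenches rhodamine fluorescence; potency means the concentration at half of the fitted maximal effect; 0% = enzyme reaction without inhibitor and -100% = no enzyme wells; top concentration of the series not given in the record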
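With Hepes-Na pH 7.6 buffer containing 10 mM MgCl2, Sfp (15 nM) modified BHQ-2-YbbR (12.5 uM) using rhodamine-CoA (5 uM). Two reads 30 minutes apart at 525/598 nm yielded each well's rate.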
TRPV1 PAM: human TRPV1 potentiation; Q8NER1; TRPV1-expressing cells, Fluo-8 calcium influx, capsaicin EC20 potentiation; host cell line not named in the record; control for the full effect not named in the record; potentiation, % at 8.33 µM; actives 0.02% (n = 320,000); AID 540277; active means potentiation above 80%; inconclusive means 30% to 80%; inactive means below 30%; further: 0% is about no effect
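TRPV1-expressing cells were cultured overnight at 35.5C and loaded with Fluo-8 calcium dye for 40 to 90 min at room temperature. After a 10 s baseline, compound was added and calcium influx was read kinetically for 3 min (ex 480/em 520 nm).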
gsp antag: antagonists of gsp mutant (McCune-Albright syndrome) | actives 0.4% (n = 340,000) | Potency, µM (highest dose often 76.9 µM), inactives show at the highest dose activity change, negative = inhibition, most hits filed as inhibitors | gsp-mutant cells, cAMP HTRF, 30 min; control for the full effect not named in the record; active = falling curve of any shape with a large fitted effect; inconclusive = falling curve, mostly with a smaller effect; inactive = flat or rising curve; cell line not stated here;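 further: intracellular cAMP measured with PDE inhibitor Ro 20-1724 present during compound exposure; potency means the concentration at half of the fitted maximal effect; on the % scale 0 is the no-effect control and ±100 the full control effect; nearly all actives have a fitted effect of over 65% in size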
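G418-selected cells were plated in DMEM/10% FBS for 16-24 h at 37C, then treated with compounds plus the PDE inhibitor […] (300 uM solution added) for 30 min at 37C. Intracellular cAMP was measured by HTRF after 30 min lysis at room temperature.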
Menin-MLL FL inh: menin-MLL binding inhibition, fluorescein peptide. 290,000 tested, under 10 active. FP activity change, % at 61.4 µM. Fluorescence polarization, fluorescein-MLL peptide displacement from menin. AID 1766; inconclusive = falling polarisation curve, or a change in total fluorescence; inactive = total fluorescence flat and polarisation flat or rising; no compound was filed as active; the % refers to the polarisation; negative = inhibition;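 further: % of control where 0% means no effect; inhibitors lower the polarisation; unlabelled MLL peptide was the positive control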
gsp agonist: gsp mutant agonism. gsp mutant cells, cAMP HTRF, 30 min; control for the full effect not named in the record. Potency, µM (highest dose often 76.9 µM), for the others: at the top dose activation (cAMP increase), usual class: activators. actives 0.13% (n = 340,000); active = well fitted activation curve with a large enough effect; inconclusive = small, poorly fitted or top-dose-only effect, or another doubt; inactive = no such curve, though single readings can be large or run the other way; cell line not stated here;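 further: phosphodiesterase inhibitor Ro 20-1724 added with compounds to block cAMP breakdown; potency means the concentration at half of the fitted maximal effect; nearly all actives have a fitted effect of over 60% in size; about a fifth of the inactives were tested at one dose only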
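Cells stably selected in G418 were plated at 2000/well, grown 16-24 hr, then given compounds in DMSO with the PDE inhibitor […] (300 uM solution added) for 30 min at 37C; cAMP was read by HTRF.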
D2 PAM: human D2 receptor positive allosteric modulation. DiscoveRx D2 beta-arrestin cells, luminescence, 90 min; 100% = 57 uM dopamine signal. AID 624464. P14416. potentiation, % (test concentration not listed). actives 0.23% (n = 360,000); active = potentiation of 50% or more; inconclusive = 30% to 50%; inactive = 30% or less;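 further: compound concentration not given in the record; tested on top of an EC20 dose of dopamine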
Target sequence (P14416 whole entry, looked up): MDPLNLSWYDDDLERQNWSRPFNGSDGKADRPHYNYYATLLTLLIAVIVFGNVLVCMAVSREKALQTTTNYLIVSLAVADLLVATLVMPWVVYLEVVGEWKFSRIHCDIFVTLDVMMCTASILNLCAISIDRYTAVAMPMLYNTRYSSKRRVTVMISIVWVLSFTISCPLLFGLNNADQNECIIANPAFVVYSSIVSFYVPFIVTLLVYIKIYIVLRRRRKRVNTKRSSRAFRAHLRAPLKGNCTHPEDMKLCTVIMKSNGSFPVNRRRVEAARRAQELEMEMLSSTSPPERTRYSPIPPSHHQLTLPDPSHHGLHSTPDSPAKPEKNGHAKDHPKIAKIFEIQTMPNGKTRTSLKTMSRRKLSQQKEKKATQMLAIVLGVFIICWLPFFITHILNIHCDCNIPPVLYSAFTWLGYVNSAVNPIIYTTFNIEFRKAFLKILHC
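PathHunter D2 cells, attached overnight at 37 deg C, received compound in DMSO plus dopamine at EC20 (50 nM final) for 90 min at 37 deg C. Beta-arrestin recruitment was read as luminescence after 1 h with detection reagent at ambient temperature.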
An asterisk follows results filed as active; & = joins results of further samples; [ ] = another dose, or the depositor's remark.

For Cn1nccc1C(=O)OCC(=O)Nc1ccccc1 the results were Sfp PPTase inh 15%, TRPV1 PAM 19, gsp antag 10%, Menin-MLL FL inh 0.7, gsp agonist -1% and D2 PAM -4.
`Cc1ccc(C)c(S(=O)(=O)N2CCCC2CNC(=O)C(=O)NCc2ccccc2C)c1` (stereo not given) gave TRPV1 PAM -9, gsp antag -8%, gsp agonist 20%[15.4 µM] and D2 PAM 4.
O=C(NCc1ccc(F)cc1)c1cc2ccccc2o1 was read as Sfp PPTase inh 14%, TRPV1 PAM -23, gsp antag -13%, Menin-MLL FL inh -0.6, gsp agonist -4% and D2 PAM -1.
For CCOc1ccc(OCC)c(NC(=O)CN2CCN(c3cc(C)ccc3C)CC2)c1 the results were ClpP mod -0.6%, Sfp PPTase inh 5.6µM*, TRPV1 PAM 2, gsp antag -19%, Menin-MLL FL inh -2.4, gsp agonist -41%[inhibitor] and D2 PAM -15.
O=C(NC1CCCc2ccccc21)c1ccc(S(=O)(=O)N2CCOCC2)cc1 (stereo not given) was read as ClpP mod 0.9%, Sfp PPTase inh 14%, TRPV1 PAM -8, gsp antag 0%, Menin-MLL FL inh 3.1, gsp agonist inconclusive and D2 PAM -5.
Screening CC1CCCCN1Cc1c(C#N)c2ccccc2n1C (stereo not given) returned ClpP mod -6.7%, Sfp PPTase inh 1%, TRPV1 PAM -10, gsp antag -10%, Menin-MLL FL inh -6.0, gsp agonist -40%[inhibitor] and D2 PAM -40.
Screening CCN(CC)C(=O)C1CCN(CC2CC=CCC2)CC1 (stereo not given) returned ClpP mod -2.7%, Sfp PPTase inh -9%, TRPV1 PAM 7, gsp antag 5%, Menin-MLL FL inh 0.7, gsp agonist -2% and D2 PAM -3.
For COc1ccc(N2CCN(C(=O)c3nn(C)c4c3CS(=O)(=O)c3ccccc3-4)CC2)cc1 the results were ClpP mod -3.6%&0.2%, Sfp PPTase inh 9%, TRPV1 PAM -1, gsp antag 16%, gsp agonist -4% and D2 PAM -6.
Screening O=C(NC(Cc1ccccc1)C(=O)O)/C(=C\c1ccco1)NC(=O)c1ccco1 (stereo not given) returned Sfp PPTase inh 9%, TRPV1 PAM -7, gsp antag -5%, Menin-MLL FL inh 1.9, gsp agonist 32%[15.4 µM] and D2 PAM 5.
Nc1nc(-c2cc(-c3ccccc3)no2)cs1 was read as ClpP mod -0.1%, Sfp PPTase inh 7%, TRPV1 PAM -17, gsp antag -10%, Menin-MLL FL inh 6.0, gsp agonist -6% and D2 PAM -8.
Cc1cc(C)c2nc(NNC(=O)c3ccc(S(=O)(=O)N4CC(C)CC(C)C4)cc3)sc2c1 (stereo not given) was read as ClpP mod -5.2%, Sfp PPTase inh inconclusive, TRPV1 PAM inconclusive, gsp antag 7%, Menin-MLL FL inh 8.6, gsp agonist 13% and D2 PAM -4.
Screening O=C(NNC(=O)C1CC(c2cccs2)=NO1)Nc1ccccc1 (stereo not given) returned ClpP mod -0.3%, Sfp PPTase inh 1%, TRPV1 PAM 4, gsp antag 7%, Menin-MLL FL inh 0.4, gsp agonist inconclusive and D2 PAM 0.
COc1ccc(CSc2ccc(S(=O)(=O)N3CCCC3)cn2)cc1F was read as ClpP mod 2.5%, gsp agonist 1% and D2 PAM -4.
Screening COc1ccc(NC(=O)/C=C/c2ccco2)cn1 returned Sfp PPTase inh -88%, TRPV1 PAM -11, Menin-MLL FL inh inconclusive, gsp agonist 17%[15.4 µM] and D2 PAM -18.
`CN(C)c1nc(Oc2ccc(C(=O)OCC(=O)Nc3ccccc3)cc2)nc(N(C)C)n1` gave ClpP mod -2.9%, Sfp PPTase inh 23%, TRPV1 PAM 10, gsp antag -17%, Menin-MLL FL inh 1.6, gsp agonist -27% and D2 PAM -17.
`C=CCn1c(COc2ccccc2)nnc1SCC(=O)N/N=C/c1ccc(C)cc1` gave ClpP mod -1.5%, Sfp PPTase inh -11%, gsp antag -5%, Menin-MLL FL inh 0.1, gsp agonist -52%[inhibitor] and D2 PAM 1.
COc1ccc([N+](=O)[O-])cc1NC(=O)Cn1ccsc1=N was read as ClpP mod inconclusive, Sfp PPTase inh 13%, TRPV1 PAM 4, gsp antag 8%, Menin-MLL FL inh -0.4, gsp agonist -1% and D2 PAM -44.
For COc1ccc(N(CC(=O)Nc2ccccc2F)S(=O)(=O)c2ccc(OC)c(OC)c2)cc1 the results were ClpP mod -1.2%, Sfp PPTase inh 0%, TRPV1 PAM 3, gsp antag -8%, Menin-MLL FL inh -4.5, gsp agonist 1% and D2 PAM 1.
`CC(=O)c1cc(CN2CCC(n3nccc3NC(=O)c3ccccc3Cl)CC2)cs1` gave ClpP mod 0.4%, Sfp PPTase inh 1%, TRPV1 PAM 2, gsp antag 0%, gsp agonist -2% and D2 PAM -12.
COc1ccc(-c2cc(=O)n(CCC#N)[nH]2)cc1 was read as ClpP mod 13%, Sfp PPTase inh 6%, TRPV1 PAM 0, gsp antag 1%, Menin-MLL FL inh 4.4, gsp agonist -13%[15.4 µM] and D2 PAM -24.
`CC(/C=N/N1CCN(c2ccc(C)cc2)CC1)=C\c1ccccc1` gave ClpP mod 0.9%, Sfp PPTase inh 14%, TRPV1 PAM -2, gsp antag 1%, Menin-MLL FL inh -1.3, gsp agonist 0%[15.4 µM] and D2 PAM -6.
Screening Cc1cc(CNC(=O)Cc2ccc(F)cc2)c2ccccc2n1 returned ClpP mod -1.7%, Sfp PPTase inh -3%, TRPV1 PAM -2, gsp antag -2%, Menin-MLL FL inh -2.9, gsp agonist 11%[15.4 µM] and D2 PAM -2.
`O=C(CNCc1ccc(Cl)cc1)Nc1ccc(C(=O)N2CCCCCC2)cc1` gave Sfp PPTase inh -21%, TRPV1 PAM 2, gsp antag -4%, Menin-MLL FL inh 4.3, gsp agonist 5%[15.4 µM] and D2 PAM -8.
O=C(O)c1ccc2c(c1)C(=O)N(c1cccc3ccccc13)C2=O was read as Sfp PPTase inh 0%, TRPV1 PAM 6, gsp antag 0%, Menin-MLL FL inh 0.7, gsp agonist 2%[15.4 µM] and D2 PAM -3.
For Cc1ccc(/C=C/C(=O)Nc2cc(S(N)(=O)=O)ccc2O)cc1 the results were ClpP mod 0.9%, Sfp PPTase inh 28µM*, TRPV1 PAM 7, gsp antag 7%, Menin-MLL FL inh 0.8, gsp agonist -1%[15.4 µM] and D2 PAM -7.
For CCCNC(=O)C(=O)c1cccn1-c1ccsc1C(=O)OC the results were ClpP mod -0.9%, Sfp PPTase inh 16%, TRPV1 PAM -9, gsp antag -2%, Menin-MLL FL inh 1.4, gsp agonist 0% and D2 PAM -7.
O=C(CN1CCC(NC(=O)C2CCCCC2)CC1)Nc1cccc(F)c1 was read as Sfp PPTase inh 29%, TRPV1 PAM -1, gsp antag 2%, Menin-MLL FL inh -0.2, gsp agonist 5%[15.4 µM] and D2 PAM -8.
Screening CC(C)(C)CN1CCC(Oc2cccc(C(=O)N3CCC[C@H]3CO)c2)CC1 returned ClpP mod -0.2%, Sfp PPTase inh 13%, TRPV1 PAM -4, gsp antag 0%, Menin-MLL FL inh -1.1, gsp agonist 15% and D2 PAM -25.
For O=C(NCc1ccc(Cl)cc1Cl)C1CCN(S(=O)(=O)c2ccc3c(c2)OCCCO3)CC1 the results were ClpP mod 1.6%, Sfp PPTase inh 8%, TRPV1 PAM 1, gsp antag -27%, Menin-MLL FL inh -0.4, gsp agonist -55%[inhibitor] and D2 PAM -10.
`COC(=O)c1cc(Br)c(=O)n(-c2ccc(OC)cc2)c1` gave ClpP mod -3.1%, Sfp PPTase inh 17%, TRPV1 PAM 3, gsp antag -5%, Menin-MLL FL inh 0.6, gsp agonist inconclusive and D2 PAM -8.
Screening O=C(CSc1nnc(-c2ccc(Cl)s2)o1)N1CCOCC1 returned Sfp PPTase inh -26%, TRPV1 PAM inconclusive and Menin-MLL FL inh 7.6.
`O=C(CSc1ccsc1[N+](=O)[O-])NCCc1ccccc1` gave ClpP mod 0.1%, Sfp PPTase inh 17%, TRPV1 PAM 7, gsp antag -2%, Menin-MLL FL inh 3.5, gsp agonist -4% and D2 PAM -3.
For CCn1c(SCCN2CCCCC2)nnc1-c1ccc(S(=O)(=O)N2CCOCC2)cc1 the results were ClpP mod -16%, Sfp PPTase inh inconclusive, TRPV1 PAM -6, gsp antag 9%, Menin-MLL FL inh 0.6, gsp agonist 3% and D2 PAM -21.
Cc1nn(-c2cc(Cl)ccc2N)c(=O)c2ccccc12 was read as ClpP mod -2.7%, Sfp PPTase inh -11%, TRPV1 PAM 9, gsp antag 2%, Menin-MLL FL inh 0.7, gsp agonist -4% and D2 PAM 8.
For Cc1ccc(S(=O)(=O)N2[C@@H](c3cccc4ccccc34)C(C(=O)O)=C[C@H]2C(C)(C)C)cc1 the results were ClpP mod 0.3%, gsp antag 4% and D2 PAM -1.
CCOC(=O)CN1C(=O)SC(CC(=O)Nc2nccs2)C1=O (stereo not given) was read as ClpP mod -0.9%, Sfp PPTase inh inconclusive, TRPV1 PAM 9, gsp antag 5%, Menin-MLL FL inh 1.8, gsp agonist 1% and D2 PAM -5.
`CS(=O)(=O)N(Cc1ccccc1)c1ccc(C(=O)Nc2ccc(C(N)=O)cc2)cc1` gave ClpP mod 12%, Sfp PPTase inh -4%, TRPV1 PAM -4, gsp antag 9%, Menin-MLL FL inh 3.5, gsp agonist -11% and D2 PAM 3.
O=C(COc1ccc(Cl)cc1Cl)N/N=C/c1ccc[nH]1 was read as ClpP mod -1.0%, Sfp PPTase inh -15%, TRPV1 PAM -2, gsp antag -5%, Menin-MLL FL inh -4.8, gsp agonist -11% and D2 PAM -6.

Molecules shown so far that contain an NH in an aromatic ring:
COc1ccc(-c2cc(=O)n(CCC#N)[nH]2)cc1 was read as ClpP mod 13%, Sfp PPTase inh 6%, TRPV1 PAM 0, gsp antag 1%, Menin-MLL FL inh 4.4, gsp agonist -13%[15.4 µM] and D2 PAM -24.
O=C(COc1ccc(Cl)cc1Cl)N/N=C/c1ccc[nH]1 was read as ClpP mod -1.0%, Sfp PPTase inh -15%, TRPV1 PAM -2, gsp antag -5%, Menin-MLL FL inh -4.8, gsp agonist -11% and D2 PAM -6.
